GALR2 agonist: activates the human galanin receptor 2. O43603. GALR2-expressing cells, agonist activation read-out. activation, %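 (tested at 5 µM)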. 140,000 compounds, 0.48% hits. AID 803;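 active means above mean plus 3 SD of all compounds, about 5% in these data, not always enough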;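 further: 0% = vehicle buffer wells and 100% = reference agonist at full effect; tested in CHO reporter cells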
RGS16-Gao HTS: regulators of human RGS16-Galphao interaction; bead-based flow cytometry RGS16-Galphao binding, fluorescence; actives lie on both sides; 220,000 compounds, 0.38% hits; binding response (% of control), % at 10 µM;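 active means below 25% or above 175%, edge rows of some plates excepted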;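 further: Galphao activated by GDP with aluminum fluoride before binding; 100% = wells without compound and 0% = beads without RGS; some results beyond the cut were filed as inactive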
HSV replic up: increases HSV replication in cells; 220,000 compounds, 0.005% hits; HSV replication augmentation in cells, fold increase; maximum fold increase;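 active means peak rise of 1.5-fold or more in the series; tested in PC3 cells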;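 further: first round at 10 µM; read as green reporter fluorescence; hits show the peak of a series up to 25 µM; 1 = signal of infected wells without compound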
INS promoter inh: TRM-6 insulin promoter activity inhibition; TRM-6 cells (human fetal islet line), insulin promoter-eGFP reporter, imaging; reporter expression induced with tamoxifen; inhibition, % at 2 µM; 130,000 compounds, 0.9% hits; AID 1273;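 active means inhibition above the mean plus 3 SD, with well images judged a real hit on visual review, cut at about 60% in these data, passing the limit was not always enough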
PKD1 inh: PKD1 (human) kinase inhibition. Q15139. PKD1 kinase fluorescence polarization assay. 200,000 compounds, 0.056% hits. inhibition, %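 (about 10 µM by stock and volumes)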;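 active means inhibition of 50% or more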;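 further: controls were vehicle for no effect and a reference inhibitor for full effect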
Target sequence (Q15139 whole entry, looked up): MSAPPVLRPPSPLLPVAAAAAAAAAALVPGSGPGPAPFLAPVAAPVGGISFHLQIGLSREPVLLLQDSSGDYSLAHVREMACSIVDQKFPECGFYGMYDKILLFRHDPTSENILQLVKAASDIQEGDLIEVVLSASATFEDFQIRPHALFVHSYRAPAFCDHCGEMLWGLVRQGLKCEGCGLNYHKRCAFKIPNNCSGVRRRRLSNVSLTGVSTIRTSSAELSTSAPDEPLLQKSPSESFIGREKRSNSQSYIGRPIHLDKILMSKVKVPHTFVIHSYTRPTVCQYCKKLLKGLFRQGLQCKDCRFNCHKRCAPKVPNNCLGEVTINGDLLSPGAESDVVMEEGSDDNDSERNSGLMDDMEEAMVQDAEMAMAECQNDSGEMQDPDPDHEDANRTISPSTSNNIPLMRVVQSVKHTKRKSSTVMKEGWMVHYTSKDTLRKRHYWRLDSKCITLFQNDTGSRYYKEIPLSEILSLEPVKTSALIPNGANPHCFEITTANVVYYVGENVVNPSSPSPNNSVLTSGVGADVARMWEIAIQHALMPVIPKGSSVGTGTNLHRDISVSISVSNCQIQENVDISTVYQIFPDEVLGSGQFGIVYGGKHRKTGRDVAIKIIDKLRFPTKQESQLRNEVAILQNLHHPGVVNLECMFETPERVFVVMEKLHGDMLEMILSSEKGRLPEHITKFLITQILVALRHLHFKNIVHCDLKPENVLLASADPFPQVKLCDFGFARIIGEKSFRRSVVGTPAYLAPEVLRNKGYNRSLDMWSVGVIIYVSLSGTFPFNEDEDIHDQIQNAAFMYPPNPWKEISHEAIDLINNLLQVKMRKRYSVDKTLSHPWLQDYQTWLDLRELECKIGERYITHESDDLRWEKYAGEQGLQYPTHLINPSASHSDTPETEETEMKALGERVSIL
INS promoter inh cell count: also measured in INS promoter inh; calls as there; normalized cell count, %; measured here: cell count, toxicity; reference of the scale not given here;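 cells exposed to compound for 48 h; stained nuclei by imaging scaled within each plate; lower means fewer cells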
HSV replic up primary fold: recorded beside HSV replic up, whose call it bears; fold increase; compound at 10 µM; measured here: primary screen fold increase 10 uM; tested in PC3 cells;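 GFP signal in the first replicate; 1 = infected wells without compound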
An asterisk follows results filed as active; i = inactive; x = no result given; [ ] = another dose, or the depositor's remark.

The line under a structure holds: GALR2 agonist, RGS16-Gao HTS, HSV replic up, HSV replic up primary fold, INS promoter inh, INS promoter inh cell count, PKD1 inh
O=C(CN(Cc1ccco1)C(=O)Cn1nnc(-c2cccs2)n1)NCc1ccccc1
→ -0.4, 108, i, 1, 42, 85, 1
CCOc1ncccc1C(=O)Nc1ccc(F)c(Cl)c1
→ x, 154, i, 1.1, x, x, -4
CC(C(=O)Nc1ccccc1Cl)c1ccc([N+](=O)[O-])cc1 (stereo not drawn)
→ x, 99, i, 1, -29, 42, 3
CCN1CCN(C(=O)C2CCN(S(=O)(=O)c3cccc4cccnc34)CC2)CC1
→ x, 192*[activator], i, 1, x, x, -3
Cc1ccc(C(=O)CSc2nnc(COc3cc(C)cc(C)c3)o2)cc1
→ -0.6, 107, i, 0.81, -21, 44, -6
O=C(COc1ccccc1)NNC1=NS(=O)(=O)c2ccccc21
→ x, 100, i, 1.1, x, x, -3
COc1ccc(-n2c(=O)[nH]c3cc(C(=O)NCCc4ccc(Cl)cc4)ccc3c2=O)cc1OC
→ x, 103, i, 0.94, x, x, -8
Cc1nn(-c2ccc(F)cc2)c(N)c1C1(O)C(=O)Nc2ccccc21 (stereo not drawn)
→ x, 109, i, 1, 33, 102, 1
Cc1nc2c(c(=O)n1CCC(C)C)c1nc3ccccc3nc1n2CC1CCCO1 (stereo not drawn)
→ x, 89, i, 0.93, x, x, x
Cc1ccc(C2C3=C(CCCC3=O)OC3=C2C(=O)CCC3)cc1
→ -2.1, 102, i, 0.99, 0, 72, 6
COc1cc(NC(=O)c2cc(-c3cccs3)on2)cc(OC)c1OC
→ -1.8, 96, x, x, x, x, -10
O=C(O)CC(CC(=O)O)(C(=O)O)c1ccccc1
→ x, 105, i, 0.76, x, x, x
O=C(CNCC1(N2CCOCC2)CCCCC1)Nc1ccc(Cl)cc1
→ x, 95, i, 0.89, x, x, -1
CCOc1cc(C=O)ccc1OCCSc1ccc(C)cc1
→ -3.3, 109, i, 0.95, 11, 122, -6
CCc1nc(NCCc2ccccn2)c2nnn(Cc3ccccc3F)c2n1
→ -0.6, 99, i, 0.84, x, x, -4
COc1cc([N+](=O)[O-])ccc1NC(=O)CCCOc1ccc(C)cc1
→ -1.2, 104, i, 1.2, 0, 142, -5
CCOC(=O)c1c(NC(=O)c2cccs2)sc(C)c1CC
→ -1.3, 96, i, 1.1, x, x, -7
COc1cc(CO)ccc1OCc1nnnn1-c1ccc(C)cc1
→ x, 98, i, 1.1, x, x, -4
Cc1ccc(NCc2ccccc2)cc1
→ x, 96, i, 1.1, -26, 81, 5
C/C(=N\Nc1nc(N2CCOCC2)nc(N2CCOCC2)n1)c1ccc([N+](=O)[O-])cc1
→ x, 99, i, 1, 43, 83, -1
CCCCCCCCCCCCCCCC[n+]1ccc(/C=N/O)cc1
→ 1.3, 100, i, 0.61, -135, 69, 8
Nc1nnc(SCCN2C(=O)c3ccccc3S2(=O)=O)s1
→ -2.1, 105, i, 1, 19, 94, 3
CN(C)/C=N/c1ncnc2c1cnn2-c1ccc(C(F)(F)F)cn1
→ -0.9, 107, i, 0.83, 7, 68, 5
CC(C)CCn1c(SCC(=O)N2CC(=O)Nc3ccccc32)nc2scc(-c3cccs3)c2c1=O
→ -0.6, 94, i, 0.98, -23, 91, 7
COc1ccccc1N1CCN(C(=O)c2cc3c(=O)n(C)c4ccccc4c3n2C)CC1
→ -2.6, 109, i, 1, x, x, 9
COc1cccc(C(=O)N2c3ccccc3Sc3ccccc32)c1
→ -1.6, 101, i, 0.95, -68, 90, -2
CC(C)(C)NC(=O)Nc1ccc2nccnc2c1
→ -0.8, 101, x, x, -39, 105, -13
Cc1onc(-c2ccc(Cl)cc2Cl)c1-c1csc(N/N=C/c2ccccc2)n1
→ x, 97, i, 1.1, x, x, x
COc1ccc(/C=N/NC(=O)C[n+]2ccccc2)c(OC)c1
→ x, 104, i, 0.94, x, x, 1
COc1ccc(Nc2nc(-c3ccc(OC)cc3)cs2)cc1
→ x, 98, i, 1, x, x, -3

Single records, from the list above. Order of values: GALR2 agonist | RGS16-Gao HTS | HSV replic up | HSV replic up primary fold | INS promoter inh | INS promoter inh cell count | PKD1 inh
Cc1nc2c(c(=O)n1CCC(C)C)c1nc3ccccc3nc1n2CC1CCCO1 (stereo not drawn) in the list: x | 89 | i | 0.93 | x | x | x
CC(C)(C)NC(=O)Nc1ccc2nccnc2c1 in the list: -0.8 | 101 | x | x | -39 | 105 | -13
Cc1nn(-c2ccc(F)cc2)c(N)c1C1(O)C(=O)Nc2ccccc21 (stereo not drawn) in the list: x | 109 | i | 1 | 33 | 102 | 1
O=C(COc1ccccc1)NNC1=NS(=O)(=O)c2ccccc21 in the list: x | 100 | i | 1.1 | x | x | -3

Other records follow:
The line under a structure holds: GALR2 agonist, RGS16-Gao HTS, HSV replic up, HSV replic up primary fold, INS promoter inh, INS promoter inh cell count, PKD1 inh
COc1cccc(Nc2nc(C)cc(C)c2C#N)c1
→ -1.8, 36, i, 0.94, 41, 82, 5
c1ccc(-c2ccc(CN3C[C@@H]4C(c5ccccc5)C5(c6ccccc6)CC4(C5)[C@H]3c3ccccc3)cc2)cc1 (stereo partly drawn)
→ x, 91, i, 0.7, x, x, x
COc1ccc(S(=O)(=O)N(Cc2cc3ccc(OC)cc3[nH]c2=O)CC2COCCO2)cc1 (stereo not drawn)
→ 0.6, 104, i, 0.99, x, x, 4
CCOC(=O)N1CCN(c2cc(=O)n(-c3cccc(C)c3)c(=O)[nH]2)CC1
→ x, 104, i, 1.1, 18, 136, -7
Cc1nn2c(=O)cc(CSc3nc4ccccc4[nH]3)nc2s1
→ -3.8, 97, i, 0.98, x, x, 0
O=C(O)CC(c1ccc(Cl)cc1)N1C(=O)CCC1=O (stereo not drawn)
→ -2.3, 102, i, 1.1, x, x, -8
COc1ccc(C2=NO[C@@H]3C(=O)N(c4ccc(C)cc4C)C(=O)[C@H]23)cc1OC
→ -1.2, 118, i, 0.83, x, x, -6
O=C(NNc1nc2cc3c(cc2s1)OCO3)c1ccccc1
→ -0.1, 86, x, x, 0, 89, 3
CCOC(=O)c1ccc(NC(=O)C2CCCN(S(=O)(=O)c3cnc[nH]3)C2)cc1 (stereo not drawn)
→ -1.1, 109, i, 0.94, x, x, 4
COc1cc(/C=N\NC(=O)c2cccc(Cl)c2)ccc1Oc1ccc([N+](=O)[O-])cn1
→ x, 95, i, 0.97, x, x, x
Cc1ccc2nc(SCC(=O)NCc3ccco3)c(C)cc2c1
→ x, 100, i, 0.97, x, x, 1
CCN(CC)S(=O)(=O)c1ccc(Oc2ccc(S(=O)(=O)N(CC)CC)cc2)cc1
→ -1.4, 74, i, 0.63, 52, 121, -7
Cc1ccc(C(=O)c2c(NC(=O)c3ccncc3)sc3c2CCCC3)cc1
→ -1.2, 106, i, 0.91, 22, 99, -8
CN1C(=O)CC(N2CCN(C(=O)CN3CCCC3)CC2)C1=O (stereo not drawn)
→ -2.8, 102, i, 0.76, x, x, -2
Cc1ccc(NC(=O)COC(=O)c2cc(C)nc3ccccc23)c([N+](=O)[O-])c1
→ 2.2, 102, i, 0.97, x, x, -6
COc1ccc(-c2nc(CSCC(=O)NCc3ccco3)c(C)o2)cc1
→ -1.7, 98, i, 0.8, -36, 89, -14
CC(NC(=O)/C(C#N)=C1\N=C(NC(=O)c2ccco2)c2ccccc21)c1ccccc1 (stereo not drawn)
→ x, 98, i, 1.2, x, x, x
CCCOc1ccc(N2CC(C(=O)Nc3ccc4c(c3)OCO4)CC2=O)cc1 (stereo not drawn)
→ -1.7, 131, i, 1.1, x, x, -17
C=CCn1c(CCn2c3ccccc3c3ccccc32)n[nH]c1=S
→ -2.5, 78, i, 0.86, -30, 123, -8
Cc1nc(P(=O)(c2ccccc2)c2ccccc2)c(N2CCOCC2)o1
→ -4.2, 108, i, 0.83, x, x, -3
Cc1cccc(NC(=O)c2nc[nH]c2C(=O)N[C@@H](Cc2ccccc2)C(=O)OC(C)(C)C)c1
→ x, 99, i, 0.93, x, x, x
CCNC(=S)N1CCNC(=O)C1CC(=O)OC (stereo not drawn)
→ -0.8, 89, i, 0.99, x, x, 4
CCOCCCNC(=O)C(c1ccc(OC)cc1)N(Cc1ccc2c(c1)OCO2)C(=O)c1ccccc1O (stereo not drawn)
→ x, 97, i, 1.1, x, x, -3
Cc1occc1C(=O)NNC(=O)Nc1ccc(Cl)c(Cl)c1
→ -0.4, 104, i, 0.92, 21, 138, -5
COc1cccc(-n2c(SC)nnc2-c2c[nH]c3ccccc23)c1
→ -0.3, 75, i, 1, x, x, -15
Cc1sc(NC(=O)c2ccco2)c(CN2CCN(c3ccc(F)cc3)CC2)c1C
→ -2.2, 120, i, 0.98, -15, 118, 3
COc1cccc(-c2noc(-c3ccc(Br)o3)n2)c1
→ x, 107, i, 1, 7, 111, -1
O=C1CCCN1c1ccc(CNS(=O)(=O)c2ccc(F)cc2)cc1
→ -1.8, 99, i, 0.95, -38, 120, -3
O=C(Cn1cc(C(=O)C2CC2)c2ccccc21)NCc1ccc2c(c1)OCO2
→ -0.7, 102, i, 0.91, -22, 112, 13
NC1=NC[C@H](Cc2ccc(O)cc2)N1CCCCC1CCCCC1
→ x, 97, i, 0.75, x, x, x
COc1ccc(OC)c(S(=O)(=O)N2CCC(C(=O)NC(C)c3ccccc3)CC2)c1 (stereo not drawn)
→ -0.7, 100, i, 0.99, -39, 123, -14
O=S(=O)(Nc1nc2ccccc2[nH]1)c1ccc(Cl)cc1
→ -1.3, 106, i, 0.63, x, x, 4
COc1ccccc1NC(=O)Nc1cc(C(C)(C)C)nn1C
→ x, 97, i, 0.87, x, x, x
CCc1nnc(NC(=O)c2ccc(S(=O)(=O)N(CC(C)C)CC(C)C)cc2)o1
→ -1.2, 100, i, 1, -200, 106, -7
CCOC(=O)C1=C(CC)Nc2ccccc2N=C1NC(=O)c1ccc(S(=O)(=O)N2CCCC2)cc1
→ x, 102, i, 0.83, x, x, -2
CCc1ccc(-c2nc(SCC(=O)N3CCOCC3)n[nH]2)cc1
→ x, 99, i, 0.97, x, x, -6
CCN(CC)c1ccc(NC(=O)c2cc3ccccc3o2)c(C)c1
→ 0.2, 104, i, 0.9, -34, 191, -2
C=CCCC(=O)Nc1ccc(Br)cn1
→ x, 101, i, 0.84, x, x, -4
CN(C)C(CNC(=O)c1ccc(S(=O)(=O)NCc2ccco2)cc1)c1ccccc1 (stereo not drawn)
→ 0.2, 104, i, 0.91, -15, 91, -3
Cc1ccc(-c2nc3ncccn3c2Nc2ccc3c(c2)OCCO3)cc1
→ -2.3, 101, i, 0.88, -19, 129, -6
Cn1c(SCCCC(=O)c2ccc(Br)cc2)nnc1-c1ccncc1
→ -0.5, 99, x, x, -13, 121, -8
O=C(COc1ncnc2ccccc12)NCCC1=CCCCC1
→ -1.6, 102, i, 0.98, 23, 81, -5
COc1ccc(C2=NO[C@@H]3C(=O)N(c4ccc5c(c4)OCCO5)C(=O)[C@H]23)cc1OC
→ -3.8, 101, i, 0.85, -17, 115, -7
Cc1ccc(S(=O)(=O)N2CCN(C(=O)C3=COCCO3)CC2)cc1C
→ -1.3, 80, i, 1.1, 30, 80, -4
Cc1cc(=O)[nH]c(SCC(=O)NCC2CCCCC2)c1C#N
→ x, 99, i, 1.1, x, x, -5
Cc1nc2cc(NC(=O)N3c4ccccc4CC3C)ccc2o1 (stereo not drawn)
→ -1.1, 98, i, 1.1, 45, 76, -4
CC(C)(CO)CNC(=O)CCc1nnc(C2(c3ccc(Cl)cc3)CCC2)o1
→ x, 103, i, 1.2, -62, 123, -1
COc1cc2c(cc1NC(=O)C(C)NCc1ccccc1)oc1ccccc12 (stereo not drawn)
→ -0.9, 101, i, 1.1, x, x, 0
Cn1c(Cc2ccccc2)nnc1SCc1cc(=O)n2ccsc2n1
→ x, 96, i, 0.99, x, x, -4
COn1c(SC2CCCCC2)nc2ccccc2c1=O
→ -0.5, 100, i, 0.94, x, x, 7
CC1=NOC(=O)/C1=C\c1ccc(-c2ccc(Cl)c(C(=O)O)c2)o1
→ x, 87, i, 1, 40, 151, 0
O=C(C1=C(O)C(=O)N(c2ccccc2)C1c1ccc([N+](=O)[O-])cc1)c1cccs1 (stereo not drawn)
→ x, 103, i, 0.99, x, x, -1
COc1cccc(NC(=O)COC(=O)c2cccnc2)c1
→ -1.8, 146, i, 0.94, 3, 172, -1
COC(=O)N[C@H](CC(C)=O)c1ccccc1
→ -1.2, 42, i, 0.87, -32, 94, -7
CC(NC(=O)Cn1nc(C(=O)O)c2ccccc2c1=O)C12CC3CC(CC(C3)C1)C2 (stereo not drawn)
→ x, 102, i, 1.1, x, x, -11
Cc1nc(Nc2c(Cl)cccc2Cl)sc1C(=O)Nc1ccccc1
→ -0.4, 102, i, 0.79, -159, 126, 6
CCN(CC)CCNC(=O)c1ccc(NC(=O)c2cccc(S(=O)(=O)Nc3ccc(C)cc3)c2)cc1
→ x, 105, i, 0.86, 55, 88, -6
CCOC(=O)CSc1nc2cc(OCC)ccc2cc1C#N
→ -0.5, 102, i, 0.77, x, x, -11

Source: PubChem (several laboratories)
